# KCNQ2 block – KCNQ2 potassium channel inhibitors, primary screen, cell-based, CHO-K1, FluxOR thallium flux, B-score (AID 2156); B-score at 10 µM; 1.1% of 310,000 active; 20 min; hits give low values; only compounds with negative scores are shown here; some inactives read as strong as hits;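 active = fluorescence ratio B-score at most minus 3 library SDs, with starting brightness B-score within 2 library SDs, cut at about -5.5 in these data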
# Target sequence (O88943 whole entry, looked up): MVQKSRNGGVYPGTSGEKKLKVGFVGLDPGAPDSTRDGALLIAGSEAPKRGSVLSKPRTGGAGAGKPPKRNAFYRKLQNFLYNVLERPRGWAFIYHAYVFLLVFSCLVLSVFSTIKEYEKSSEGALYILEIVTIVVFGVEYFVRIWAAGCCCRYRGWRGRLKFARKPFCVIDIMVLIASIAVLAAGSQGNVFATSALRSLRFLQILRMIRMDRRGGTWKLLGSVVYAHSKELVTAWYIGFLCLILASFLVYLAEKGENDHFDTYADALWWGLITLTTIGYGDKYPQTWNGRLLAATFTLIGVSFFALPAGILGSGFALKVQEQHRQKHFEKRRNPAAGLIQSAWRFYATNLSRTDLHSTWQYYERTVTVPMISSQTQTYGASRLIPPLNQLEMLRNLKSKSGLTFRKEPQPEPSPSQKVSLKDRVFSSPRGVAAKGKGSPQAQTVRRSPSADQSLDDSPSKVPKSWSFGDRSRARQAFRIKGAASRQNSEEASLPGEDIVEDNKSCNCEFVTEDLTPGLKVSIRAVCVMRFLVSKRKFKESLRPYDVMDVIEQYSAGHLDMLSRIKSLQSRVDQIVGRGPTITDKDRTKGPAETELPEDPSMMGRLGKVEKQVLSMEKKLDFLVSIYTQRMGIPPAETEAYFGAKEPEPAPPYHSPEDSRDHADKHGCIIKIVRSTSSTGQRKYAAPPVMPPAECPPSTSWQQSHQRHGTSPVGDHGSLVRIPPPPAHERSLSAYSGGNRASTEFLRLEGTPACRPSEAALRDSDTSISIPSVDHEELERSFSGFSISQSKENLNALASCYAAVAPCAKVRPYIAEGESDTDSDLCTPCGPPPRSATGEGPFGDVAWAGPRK
# KCNQ2 block baseline – second read-out of KCNQ2 block, no call of its own (marks repeat the call); B-score; measured here: initial fluorescence intensity artifact check;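 brightness before thallium and not channel activity; 0 = typical well and far values either way flag optical interference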
# Active calls of the source: *; i = inactive. These rows are one share of the data, so the mix of outcomes need not match the whole.
SMILES	KCNQ2 block baseline	KCNQ2 block
CC(C)(C)OC(=O)[C@H](Cc1ccccc1)NC(=O)c1nc[nH]c1C(=O)NC1CCN(C(=O)OC(C)(C)C)CC1	-0.13	i
CCS(=O)(=O)N1CCC(C(=O)NCc2cccnc2)CC1	-0.05	i
COc1cc(/C=N/Nc2ccccc2[N+](=O)[O-])ccc1OC(=O)c1ccccc1F	-1.9	i
N#CCCCN1C(=O)C(O)(CC(=O)c2ccc3c(c2)OCCO3)c2ccccc21 (stereo unspecified)	0.05	i
Cc1[nH]c(=O)c(C(=O)/C=C/c2ccccc2F)c2c1CCCC2	0.96	i
COC(=O)C1=CN(C(C)C)C=C(C(=O)OC)C1c1cccc(OC)c1	-0.73	i
Cc1cc(NC(=O)CCC(=O)N(c2cccc(F)c2)C(C(=O)NC2CCCC2)c2ccc(C)o2)no1 (stereo unspecified)	-1.1	i
C1CCN(C2CCN(c3nc4nonc4nc3N3CCSCC3)CC2)C1	-1.4	i
COc1cc2c(cc1NCc1ccc3c(c1)OCO3)oc1ccccc12	-2.2	i
Cn1c(=O)oc2cc(S(=O)(=O)NCc3ccc(C(=O)O)cc3)ccc21	0.63	i
CCOC(=O)CSc1nnc(CSc2nc3sc4c(c3c(=O)[nH]2)CCC4)n1C	2.5	i
COc1ccc(-c2nc(SCC(=O)NC3CCCCC3)n[nH]2)cc1	-0.47	i
Cc1cccc(C(=O)NC2CCN(CC(=O)Nc3ccc4c(c3)OCO4)CC2)c1	0.09	i
CCOC(=O)c1c(C)[nH]c(C)c1C(=O)COC(=O)c1ccc(Cl)c(S(N)(=O)=O)c1	-0.68	i
Cc1ccc(NC(=O)C(C)OC(=O)CCC2CCCCC2)cc1 (stereo unspecified)	0.84	i
O=C(CNC(=S)N(Cc1ccccc1)Cc1cccnc1)NC1CCCCC1	-0.13	i
CCOC(=O)C1(C/C(C)=N/NC(N)=O)CC(C)OC1=O (stereo unspecified)	0.66	i
Cn1cnnc1SCC(=O)NCCC(c1ccccc1)c1ccccc1	-0.49	i
Cc1nc(CCNC(=O)CC2C(=O)NCCN2Cc2ccoc2)nc2c1CCCC2 (stereo unspecified)	0.63	i
CCOC(=O)Nc1ccc2c(CN3CCN(S(=O)(=O)c4ccccc4)CC3)cc(=O)oc2c1	1.9	i
COC(=O)CCC(=O)Nc1ccc(N=Nc2ccccc2)cc1	-0.48	i
Clc1ncnc2c1oc1ccccc12	-0.28	i
COCc1cc([C@@H]2C[C@H]3CN(c4ccccc4)C(=O)[C@]34CCCN24)ccc1OC	1	i
Clc1ccc(OCCSCc2nc3ccccc3[nH]2)cc1	-1.8	i
Cc1cccc(-c2ncc(CN3CCCC(CO)(Cc4ccccc4C)C3)cn2)c1 (stereo unspecified)	0.95	i
Cc1ccc(CCNC(=O)CCS(=O)(=O)c2cc3c(cc2C)NC(=O)CO3)cc1	0.85	i
Cc1cccc(NC(=S)NCCO)c1C	-0.58	i
COc1ccc(OC)c(NC(=O)Cc2ccc(NC3=NC4CS(=O)(=O)CC4S3)cc2)c1 (stereo unspecified)	-1.5	i
O=C(NCCC(=O)N1CCC2(CC1)NCCc1[nH]cnc12)c1cccc(Cl)c1	1.8	i
CCOc1ncccc1C(=O)N(CC)CC(=O)NCc1ccc(Cl)cc1	-1.1	i
Cc1ccccc1CC(=O)Nc1cc(C(C)(C)C)on1	0.63	i
COC(=O)c1ccc2c(c1)N(Cc1ccccc1F)C(=O)c1ccccc1S2=O (stereo unspecified)	0.11	i
CCCC(=O)N1c2ccccc2C(=C2SC(C(=O)OC)=C(C(=O)OC)S2)C(=S)C1(C)C	-0.66*	-7.9*
Cc1cc(C)n(CC(=O)N2CCCC(N3CCN(c4cccc(C(F)(F)F)c4)CC3)C2)n1 (stereo unspecified)	3.3	i
Cc1cc(C=O)c(C)n1-c1ccc2c(c1)OCO2	1.2	i
CCCOc1cc(C)nc(-c2ccccc2O)n1	-0.04	i
Cc1cccc(OCc2nnc(SCC(=O)N(C(C)C)C(C)C)n2Cc2ccco2)c1C	-1.1*	-7.7*
O=C(O)c1ccccc1SCc1cn2ccccc2n1	2.1	i
O=C(Cn1cnc2cc([N+](=O)[O-])ccc2c1=O)NCCc1ccc(F)cc1	0.61	i
CCCCCCn1nc(C(=O)N(CC(C)C)c2c(N)n(CCCC)c(=O)[nH]c2=O)c2ccccc2c1=O	-0.17	i
CC1CN(C(=O)c2cc([N+](=O)[O-])cc([N+](=O)[O-])c2)CC(C)O1 (stereo unspecified)	-0.94	i
CCN(CC(=O)Nc1ccc(C(=O)OC)cc1)Cc1ccccc1	1.6	i
CCCCNC(=S)Nc1ccc2[nH]c(=O)[nH]c2c1	1.1	i
O=C(c1cn(-c2ccccc2)nc1-c1ccccc1)N1CCN(c2ccccn2)CC1	-0.02	i
C=CCOC(=O)C(C#N)c1nc2ccccc2nc1N1CCC(C(=O)OCC)CC1 (stereo unspecified)	0.58	i
Cc1nc2c3ccccc3nc(NNC(=O)CCC(=O)NC(C)C)n2n1	0.12	i
COc1cc(C)ccc1OCc1cc(C(=O)N2CCCCCCC2)no1	-1.1	i
CCOc1ccccc1NC(=S)N1CCCc2ccccc21	-0.01	i
CCCc1cc(=O)[nH]c2nnc(SCC(=O)Nc3ccc(NC(C)=O)cc3)n12	0.02	i
COc1ccccc1NC1=C(N2CCCCC2)C(=O)c2ccccc2C1=O	-0.34	i

# (more compounds)
SMILES	KCNQ2 block baseline	KCNQ2 block
CC(C)C[C@@H](CO)N1CCN(Cc2ccccc2)CCC1=O	-0.26	i
CCOC(=O)c1cc(S(=O)(=O)N(C)Cc2ccccc2)cn1C	1	i
O=C(Nc1ccccc1)C1CCN(S(=O)(=O)c2ccc3c(c2)OCCO3)CC1	-1.1	i
Cc1ccc(CNC(=O)Cn2cccc2)cc1	0.06	i
O=[N+]([O-])c1ccccc1S(=O)(=O)N1CCN(Cc2cc3c(cc2O)OCO3)CC1	0.84	i
O=C(COC(=O)c1ccccc1F)Nc1cc(S(=O)(=O)N2CCOCC2)ccc1N1CCCC1	-1.4	i
COc1cc(C(=O)Nc2nc3ccc4nc(C)sc4c3s2)cc(OC)c1OC	0.7	i
COC(=O)C(=O)C/C(=N/Nc1ncnc2ccccc12)c1ccc(Cl)cc1	-0.06	i
Cc1sc(NC(=O)C2CCCCC2)c(C#N)c1-c1ccccc1	0.02	i
C=CCCCCCCCCc1nc(SCC(C)=O)n[nH]1	-0.29	i
c1ccc(CCCNCC2COc3ccccc3O2)cc1 (stereo unspecified)	0.07	i
Cc1ccn2c(=O)c(C(=O)NCCN3CCOCC3)c(O)nc2c1	0.08	i
O=C(NCc1ccccc1)c1ccc(-c2ccc(F)cc2)o1	1.9	i
COCCNC(=O)CSc1nc2ccccc2c(=O)n1CC1CCCO1 (stereo unspecified)	2.2	i
Cc1ccccc1CSc1nnc(-c2ccccn2)n1C	0.5	i
COc1ccc(S(=O)(=O)NCC(=O)N(CC(=O)NCc2ccccc2)Cc2ccco2)cc1	-0.05	i
O=C1/C(=C/c2ccc(Br)cc2)Oc2cc(O)ccc21	4.5	i
Nc1ccc(-c2cc(-c3cccc(N)c3)nc(-c3ccccc3)n2)cc1	0.03	i
COc1ccc(NC(=O)c2ccc(Br)o2)c([N+](=O)[O-])c1	-0.15	i
Cc1ccc(C2CC(=O)Nc3cc4c(cc32)OCCO4)s1 (stereo unspecified)	-0.04	i
CCOC(=O)/C(=C/C=C1\Sc2cc(C)c(C)cc2N1CC)C(C)=O	16	i
COc1ccc(CNC(=O)CNC(c2ccccc2)c2ccccc2)cc1OC	-0.03	i
Cc1cc2[nH]c(=O)c(=O)[nH]c2cc1S(=O)(=O)Nc1cccc(C)c1C	0.91	i
C/C=C(/C)C(=O)Nc1cccc(C2=NOC3(C2)C[C@H](C(N)=O)N(C(=O)c2ccccc2)C3)c1 (stereo partly specified)	-0.67	i
Cc1ccc(CNC(=O)c2ccc(-n3cccc3)cc2)cc1	1.1	i
O=C(CSc1n[nH]c(-c2ccccc2O)n1)N1CCCc2ccccc21	0.83	i
Cc1ccc2nc(NC(=O)CN3C(=O)NC4(CCCCC4)C3=O)sc2c1	-0.74	i
Cc1ccc(C(=O)Nc2ccccc2C(=O)Nc2ccccn2)cc1Cl	-0.45	i
CC1(C)CC(=O)c2cc(NC(=O)c3ccc(F)cc3)c(=O)oc2C1	0.59	i
CC1(C)Cc2c(sc3nc4n(c(=N)c23)CCCCC4)CO1	0.72	i
CCNC(=O)CC1SC(=Nc2ccc(Cl)cc2)N(CC)C1=O (stereo unspecified)	0.13	i
CC1Cc2cc(-c3csc(NC(=O)Cc4ccccc4)n3)ccc2N1S(C)(=O)=O (stereo unspecified)	-1.8	i
Cc1ccc(C(=O)Nc2cc(Cl)ccc2OC(=O)c2ccc(C)cc2)cc1	0.73	i
Cc1nnc(NC(=O)c2ccc3c(c2)C(=O)N(CCC(C)C)C3=O)s1	2.1	i
Cc1ccc(C(=O)NNC(=O)CSc2nnc(-c3ccncc3)n2-c2ccc(C)cc2)cc1	-0.52	i
Cc1ccc(Nc2nc(COC(=O)COc3ccc(C=O)cc3)cs2)cc1	-0.09	i
CCC(C)N(NC(C)=O)c1nc(Cl)nc(NC(C)C)n1 (stereo unspecified)	1.4	i
Cc1cccc(NC(=O)C2C3CCC4C(CCC32)C4(Cl)Cl)c1 (stereo unspecified)	-0.65	i
COC(=O)C1NN=C(C(=O)c2ccccc2)C1c1ccccc1 (stereo unspecified)	0.76	i
Cc1cc2cccc(C)c2nc1SCC(=O)N(C)c1nc(-c2ccccc2)cs1	-0.29	i
CCN(CCn1cccn1)C(=O)CCc1nnc(-c2ccc3c(c2)OCO3)o1	5.1	i
Cc1ccccc1NC(=O)N(CCc1nc2ccccc2[nH]1)Cc1ccccc1	0.28	i
CCOc1ccc(NC(=O)CCNS(=O)(=O)c2ccc3c(c2)CC(C)N3C(C)=O)cc1 (stereo unspecified)	-0.77	i
COc1cccc(C(=O)CN2CCN(S(=O)(=O)c3cccc([N+](=O)[O-])c3)CC2)c1	0.11	i
O=C(O)CN1C(=O)COc2ccc(S(=O)(=O)N3CCCCCC3)cc21	-0.76	i
CCOC(=O)c1c(C)[nH]c(C(=O)COC(=O)c2ccc(O)cc2)c1C	0.06	i
Cc1ccccc1-n1nc2c(c1NC(=O)CC(C)C)CS(=O)C2 (stereo unspecified)	-1.7	i
Cc1sc2ncnc(N3CCC(C(=O)Nc4cc(Cl)ccc4Cl)CC3)c2c1C	1.2	i
O=c1oc2ccccc2c(NCc2cccc(F)c2)c1[N+](=O)[O-]	0.62	i
Cc1sc(N)nc1-c1ccc(Oc2ccccc2)cc1	1.7	i

# Part of the list above, set out differently.
COC(=O)C1NN=C(C(=O)c2ccccc2)C1c1ccccc1 (stereo unspecified)
  KCNQ2 block baseline: 0.76 | KCNQ2 block: i
Cc1cc2cccc(C)c2nc1SCC(=O)N(C)c1nc(-c2ccccc2)cs1
  KCNQ2 block baseline: -0.29 | KCNQ2 block: i
CCN(CCn1cccn1)C(=O)CCc1nnc(-c2ccc3c(c2)OCO3)o1
  KCNQ2 block baseline: 5.1 | KCNQ2 block: i

# By substructure: the entries above containing two or more sulfur atoms.
SMILES	KCNQ2 block baseline	KCNQ2 block
CCOC(=O)CSc1nnc(CSc2nc3sc4c(c3c(=O)[nH]2)CCC4)n1C	2.5	i
COc1ccc(OC)c(NC(=O)Cc2ccc(NC3=NC4CS(=O)(=O)CC4S3)cc2)c1 (stereo unspecified)	-1.5	i
CCCC(=O)N1c2ccccc2C(=C2SC(C(=O)OC)=C(C(=O)OC)S2)C(=S)C1(C)C	-0.66*	-7.9*
COc1cc(C(=O)Nc2nc3ccc4nc(C)sc4c3s2)cc(OC)c1OC	0.7	i
CC1Cc2cc(-c3csc(NC(=O)Cc4ccccc4)n3)ccc2N1S(C)(=O)=O (stereo unspecified)	-1.8	i
Cc1cc2cccc(C)c2nc1SCC(=O)N(C)c1nc(-c2ccccc2)cs1	-0.29	i

# Next section.
SMILES	KCNQ2 block baseline	KCNQ2 block
Cc1noc(C)c1S(=O)(=O)N(CC(=O)Nc1ccc2c(c1)OCCO2)c1ccc(C(C)C)cc1	0.77	i
CCCC(=O)Nc1ccc(C(=O)NNC(=O)c2cccs2)cc1	1	i
Cc1cc(C)n(C(=O)c2ccc(C)c(S(=O)(=O)N3CCOCC3)c2)n1	0.15	i
Cc1cc(C)c(C#N)c(SCSCc2ccccc2)n1	0.11	i
COC(=O)c1ccc(-n2nnnc2SCc2ccccc2OC)cc1	0.36	i
Cc1ccc2cc3cc(C(=O)N4CCCCC4C)oc3nc2c1 (stereo unspecified)	-0.93	i
O=C(O)C1C2C=CC(C2)C1C(=O)NCc1ccccc1 (stereo unspecified)	-0.89	i
Oc1ccc(-c2n[nH]c(=S)n2Cc2ccco2)cc1	0.01	i
CCc1cc(C(=O)N2CCN(c3ncc(C(F)(F)F)cc3Cl)CC2)sc1C	-0.17	i
O=C(O)C1CCCN1c1nc(C(F)(F)F)nc2ccccc12 (stereo unspecified)	1.5	i
Cc1ccc(N(Cc2ccc(C(=O)Nc3ccccc3C(=O)NCc3ccco3)cc2)S(C)(=O)=O)cc1C	0.42	i
Cc1nnc(SCc2cc(=O)[nH]c(/N=C(\N)Nc3ccccc3)n2)s1	-1.4	i
O=C(CSc1nc2[nH]ncc2c(=O)n1-c1ccccc1)NCc1cccs1	-1.3	i
Cc1ccc(CN2CC(C(=O)Nc3ccc4c(C)cc(=O)oc4c3)CC2=O)cc1 (stereo unspecified)	0.02	i
O=C(c1cc(F)c(F)cc1Cl)N1CCCc2ccccc21	-0.02	i
Cc1ccc(NC(=O)c2ccccc2NC(=O)c2cccnc2)cc1	0.4	i
O=C(NCCC1=CCCCC1)C1CC(=O)N(C2CCCCC2)C1 (stereo unspecified)	-0.12	i
